Bioassay records (PubChem)
HIV Env fusion: inhibitors of HIV Env-mediated cell fusion; hit rate 1.1% among 360,000; HeLa-JRFL Env/CEM21 cell fusion, luciferase; inhibition, % at 12.3 µM;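 active = mean replicate inhibition score of at least 50 and every replicate individually at or above 50; inconclusive = only one of the two criteria met; inactive = mean below 50 and not all replicates reaching 50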;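 also: 0% = plate neutral controls and 100% = maraviroc near 300 nM; one replicate is shown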
eIF4H FP inh: inhibitors of RNA binding by human eIF4H; eIF4H fluorescence polarization binding assay; inhibition, % at 35 µM; hit rate 0.94% among 290,000; AID 2012;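 active = 50% or more with normal probe brightness, or confirmed in later tests; inconclusive = above 50% with abnormal brightness, or retests that disagree; inactive = below 50% or failed in later tests; about a fifth of its hits are not listed in these tables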;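 also: calls also rest on retests at 20 µM and on dose response follow-up; 0% = protein and probe with vehicle and 100% = probe without protein; strong numbers were not always called active; many hits fall short of the cut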
MT1-MMP act inh: MT1-MMP (human) activation inhibition. P50281. HT1080 RFP-PRO-GFP cells, GFP/RFP ratio fluorescence, overnight; percent of plate control window, DMSO zero. GFP/RFP ratio change, % at 20 µM. hit rate 0.061% among 360,000. AID 651647;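 active = GFP/RFP ratio change of at least 30% with cell ATP level not reduced by more than half and red fluorescence within 50% of control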; also: strong numbers were not always called active
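system = RFP-PRO-GFP reporter HT1080 cells | dosing = 20 µM single dose, 1% DMSO | timing = overnight cell settling, then overnight compound exposure, 37 °C, 5% CO2 | read-out basis = GFP/RFP fluorescence ratio | controls = DMSO and RFP-L50D-GFP cell wells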
PABP FP inh: blocks human PABP binding to poly(A) RNA | P11940 | fluorescence polarization | inhibition, % at 35 µM | hit rate 1% among 290,000;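 active = 50% or more with normal probe brightness, or confirmed in later tests; inconclusive = above 50% with abnormal brightness, or retests that disagree; inactive = below 50% or failed in later tests; about a fifth of its hits are not listed in these tables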;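 also: calls also rest on retests at 20 µM and on dose response follow-up; controls were probe without protein and protein plus probe with vehicle; some compounds called inactive have numbers as strong as hits; many hits fall short of the cut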
Target sequence (P11940 whole entry, looked up): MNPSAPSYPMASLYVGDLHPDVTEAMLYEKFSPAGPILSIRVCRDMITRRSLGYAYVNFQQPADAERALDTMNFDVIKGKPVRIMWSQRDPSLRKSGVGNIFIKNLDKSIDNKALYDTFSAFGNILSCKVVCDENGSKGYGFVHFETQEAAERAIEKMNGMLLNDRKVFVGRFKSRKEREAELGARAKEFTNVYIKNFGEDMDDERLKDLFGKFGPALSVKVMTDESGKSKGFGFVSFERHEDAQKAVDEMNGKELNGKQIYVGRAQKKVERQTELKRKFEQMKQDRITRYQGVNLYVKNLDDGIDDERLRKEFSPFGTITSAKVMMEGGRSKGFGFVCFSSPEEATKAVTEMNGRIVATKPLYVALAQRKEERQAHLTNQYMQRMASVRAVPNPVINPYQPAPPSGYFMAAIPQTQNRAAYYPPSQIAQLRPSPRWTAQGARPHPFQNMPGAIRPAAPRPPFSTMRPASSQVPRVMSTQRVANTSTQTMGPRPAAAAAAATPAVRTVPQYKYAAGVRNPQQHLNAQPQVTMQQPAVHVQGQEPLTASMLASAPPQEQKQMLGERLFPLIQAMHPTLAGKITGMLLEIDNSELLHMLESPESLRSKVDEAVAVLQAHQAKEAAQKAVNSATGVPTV
UUG fidelity: modulators of start codon recognition fidelity in yeast | S. cerevisiae UUG-firefly luciferase reporter, luminescence/redox ratio | activity score, % at 18.7 µM | hit rate 0.13% among 350,000 | AID 602363;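 active = replicate mean at a twofold rise or more, about +100% in these data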;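 also: firefly luciferase made from a UUG start codon reports start codon fidelity; reporter light over untreated wells divided by growth signal over untreated wells; some hits fall short of that in this replicate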
Rce1 inhib: inhibitors of yeast Ras-converting enzyme. Q03530. yeast membranes, quenched prenylated peptide cleavage fluorescence. calls only. hit rate 0.27% among 290,000. AID 2563;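 active = fall in fluorescence gain of 50% or more versus controls, with final raw signal at or below 3038400; inconclusive = same 50% fall but final raw signal above 3038400; inactive = fall in fluorescence gain under 50%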;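 also: plate controls were neutral control wells for no effect and wells lacking membranes for full effect; tested at 10 µM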
CSC inhib: cancer stem cell inhibition; cancer stem cell-like cells viability, luminescence; inhibition, % at 7.5 µM; hit rate 1.1% among 300,000;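 active = mean at 75% or more and at least half the replicates too; inconclusive = mean and replicates disagree; tested in HMLE shEcad cells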;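 also: 0% = median of negative and 100% = median of positive control wells; the first replicate is given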
MT1-MMP act inh RFP: also measured in MT1-MMP act inh; calls as there; RFP signal change, %; measured here: RFP expression control read;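 0 = vehicle wells; hits needed this value within 50% of zero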
Active calls of the source: *; i = inactive; ? = inconclusive; · = no result given.

Second line of a record: HIV Env fusion, eIF4H FP inh, MT1-MMP act inh, MT1-MMP act inh RFP, PABP FP inh, UUG fidelity, Rce1 inhib, CSC inhib
> COc1cccc(-n2c(SCc3c(C)noc3C)nnc2-c2cccc(S(=O)(=O)N(C)C)c2)c1
  -148, 7, -12, -12, 6, -1, i, 4
> Cc1ccc(CNC(=O)C2CCCN2C(=O)Nc2ccc(F)cc2)cc1 (stereo unspecified)
  4, -6, 1, 2, 1, -5, i, -30
> CCOC(=O)c1c(NC(=O)CCS(=O)(=O)c2ccccc2)sc2c1CCN(C(C)C)C2
  1, -8, -2, 4, -2, -4, i, 6
> CCc1ccccc1NC(=O)NC1CCCCCCC1
  2, -2, -8, -4, 4, 0, i, 2
> Cc1ccc(-c2cnco2)cc1
  -9, 1, -1, 2, 0, ·, i, -11
> c1ccc2c(-c3ccncc3)c[nH]c2c1
  ·, -8, -3, -5, 8, -11, i, 8
> COc1ccc(-c2cc(C)no2)cc1S(=O)(=O)NCCc1ccco1
  -6, 9, 2, 0, 8, -8, i, -9
> Cc1ccc(NC(=O)c2ccccc2NC(=O)Cc2ccccc2)cc1
  10, -2, -4, -1, 0, ·, i, 0
> CCCNC(=O)C1(C)CCCN(C(=O)Cc2ccc(OC)cc2)C1 (stereo unspecified)
  6, ·, 4, 5, ·, -2, ·, ·
> Cc1ccc(Cn2nnc3c(=O)[nH]c(C4CCN(S(=O)(=O)c5ccccc5F)CC4)nc32)cc1
  -3, -9, 0, 0, -3, -1, i, 28
> CCCCOc1ccc(NC(=O)CN2CCN(Cc3ccccc3)CC2)cc1
  8, 8, 4, 0, -11, 0, i, 22
> CCCC(NCC(=O)Nc1ccccc1C(=O)NC1CC1)c1ccccc1 (stereo unspecified)
  -17, ·, 1, 1, ·, 2, ·, ·
> COc1ccc(-n2c(Cc3cccn3C)nnc2SCC(=O)Nc2cccc(Cl)c2)cc1
  -9, -13, 7, 4, 7, -18, i, 117*
> Oc1ccccc1/C=N/[n+]1ccccc1
  0, ·, -3, 2, ·, -15, i, 1
> CCOC(=O)[C@@H]1[C@H]2COc3ccc(Br)cc3[C@@H]2N2C(=O)N(c3ccc(F)cc3)C(=O)[C@@]12C
  100*, ·, -1, 1, ·, -18, ·, -9
> O=C1CN(C(=O)CSc2nc3ccccc3c(=O)n2CC2CCCO2)c2ccccc2N1 (stereo unspecified)
  20, -2, -4, 0, -3, ·, i, ·
> O=C(NCCN1C(=O)C2C3C=CC(C3)C2C1=O)Nc1cccnc1 (stereo unspecified)
  -29, -7, 10, 9, 4, 0, i, -7
> CC(C)/C=N/NC(=O)c1ccc(Cl)cc1
  2, 0, 0, 10, 5, -17, i, -3
> Cc1[nH]n(-c2ccccc2)c(=O)c1/C=N/N(C)c1ccccc1
  -49, 2, 9, 2, -1, ·, i, 15
> C#CCOc1ccc(Cl)cc1/C=N/O
  ·, -5, -4, 0, 8, -7, i, ·
> Cc1ccc(C(=O)OCC(=O)N2CC(C)CC(C)C2)cc1S(=O)(=O)N1CCOCC1 (stereo unspecified)
  18, -9, 1, -2, -2, -7, i, 17
> CCN(CC)c1ccc(C(=O)OCC(=O)Nc2ncccn2)cc1
  -26, ·, 5, 0, ·, -12, ·, -6
> CCCC(CCC)C(=O)NC1CCN(Cc2ccccc2)CC1
  27, 10, 1, 7, -6, -4, i, 2
> CC(C)C(=O)N=c1sc2cccc(F)c2n1C
  -3, 2, 5, 5, 14, ·, i, -20
> c1ccc2c(c1)OC(CCCN1CCCCC1)c1ccccc1S2 (stereo unspecified)
  -100, 3, -2, -5, -9, -8, i, 44
> Cc1ccc2c(c1)N(CC(=O)N1CCCC1)C(=O)C(C)O2 (stereo unspecified)
  -16, 0, -4, 1, 8, -8, i, -20
> COc1cc(C2Nc3ccccc3NC3=C2C(=O)CC(C)(C)C3)cc(OC)c1OC(C)=O (stereo unspecified)
  -15, 9, 1, 3, 20, -7, i, -16
> CNc1nc(-c2cccs2)cc(C(F)(F)F)c1C#N
  9, 1, -6, 0, 1, ·, ·, 1
> Cc1ccc(-n2c(-c3ccco3)nc3nc4ccccc4nc32)cc1
  -15, ?, -15, 5, 2, ·, i, -8
> COc1ccc(/C=C2\SC(=O)N(CCNC(=O)Cn3[nH]c(=O)c4ccccc4c3=O)C2=O)cc1
  -1, ·, -3, -4, ·, -8, ·, -3
> O=S(=O)(c1cnc(Cl)c(Br)c1)N1CCCCCC1
  2, -9, -6, -3, -6, ·, i, 7
> CN1CCN(S(=O)(=O)c2cccc(C(=O)Nc3cc(C(N)=O)cc(C(N)=O)c3)c2)CC1
  -2, 29, 0, -1, 15, -3, ·, 0
> CCN1CC(C)C(O)(c2ccccc2)CC1C (stereo unspecified)
  ·, -2, -1, 0, 4, ·, i, -3
> Cc1ccc(-n2ncc3c(=O)n(-c4cccc(C)c4)c(=O)[nH]c32)cc1
  0, ·, 2, -1, ·, -13, ·, ·
> COC(=O)CSc1nnc(-c2cccc(NC(=O)c3ccc(C)cc3)c2)n1C
  ·, 1, 1, 1, -4, -6, i, -15
> Cc1ccc(C)c(Nc2c([N+](=O)[O-])ccc3nonc23)c1
  14, -10, -10, -2, 4, 6, i, -5
> COc1ccc(OC)c(N(CC(=O)NCCSCc2ccco2)S(=O)(=O)c2ccc(OC)c(OC)c2)c1
  -10, -8, 2, -1, 2, -16, i, -30
> CC(=O)CC1(C)OC(N)=C(C#N)C1(C#N)C#N (stereo unspecified)
  ·, ?, 1, 6, ?, -23, i, -4
> Cc1cc(C)nc(-n2cc(C(=O)c3cc(F)ccc3O)cn2)n1
  -8, 12, -1, 3, 4, -39, i, ·
> CCN1CCC[C@H]1CNC(=O)c1cc(S(N)(=O)=O)ccc1OC
  ·, 11, ·, ·, -4, ·, i, -8
> Cc1ccc(C)c(SCC(=O)Nc2cccnc2Cl)c1
  13, -7, 4, 5, -10, ·, i, ·
> CC(C)=CCC/C(C)=C/CC/C(C)=C/COc1ccc2ccc(=O)oc2c1
  2, ·, 4, -6, ·, -1, ·, 8
> CSCCC(NC(=O)C1CC1)c1nc2ccccc2[nH]1 (stereo unspecified)
  -36, -3, 1, 0, -1, -6, i, -2
> COCC(O)Cn1ccnc1N=Nc1ccccc1 (stereo unspecified)
  6, ·, 0, 6, ·, -18, ·, ·
> CCNC(=O)c1ccc2c(c1)C1C3CCC(C3)C1C(c1ccccc1)N2 (stereo unspecified)
  9, -6, -2, -3, -4, ·, i, -4
> O=C(Nc1c2c(nn1-c1cccc(Cl)c1)CS(=O)(=O)C2)C1CC1
  -4, -15, -2, -1, -12, -4, i, ·
> CN(C)CCCOc1ccc2c(c1)Sc1ccccc1CC2=O
  11, -1, -4, 1, 3, ·, i, -6
> CCOC(=O)C1CCc2sc(N)c(C#N)c21 (stereo unspecified)
  ·, 12, 0, 6, 35, ·, i, -1
> COc1ccccc1NC(=O)COc1ccc(C(=O)NC2CCCc3ccccc32)cc1OC (stereo unspecified)
  0, -3, 2, 2, -7, 1, i, 2
> O=C(NCc1ccc(Cl)cc1Cl)c1ccc2nc[nH]c2c1
  10, 2, 3, 5, 19, ·, i, 12

Later entries
Second line of a record: HIV Env fusion, eIF4H FP inh, MT1-MMP act inh, MT1-MMP act inh RFP, PABP FP inh, UUG fidelity, Rce1 inhib, CSC inhib
> CN(C)CC(=O)Nc1nc(-c2ccccc2)cs1
  ·, -2, 0, 5, 13, ·, i, -1
> N=C1C(c2nc3ccccc3[nH]2)=C(O)CN1C1CCCCC1
  -44, 6, 3, 3, -2, ·, i, 2
> O=C(CCCOc1ccc(Cl)cc1Cl)Nc1ccccc1C(=O)O
  -36, -3, 4, 7, 4, -16, i, 52
> O=C(N1CCOCC1)N1CCN(S(=O)(=O)c2ccc(Cl)cc2)CC1
  -101, 3, -2, 1, 6, -3, i, -6
> COC(=O)CN1C(=O)C(O)(CC(=O)c2ccc(C)cc2)c2ccccc21 (stereo unspecified)
  ·, 10, 1, 1, -2, -2, i, ·

Not all compounds are listed (hit frequency here may not be typical).
